2A Renilla: Primary qHTS Assay for Foot and Mouth Disease Virus Antivirals against NCGC Sytravon and CBC Compound Libraries: Renilla Luciferase Signal | HEK cells with a luciferase reporter of 2A StopGo recoding | Potency, µM (series often up to 57.5 µM), without a hit: at the top dose signal change, negative = less light | hit rate 0.32% among 120,000 | AID 1745857, 2022; active means well fitted falling curve with a large enough effect; inconclusive means small, poorly fitted or top-dose-only effect; inactive means no such curve, though single readings can be large or run the other way; note: nearly all actives have a fitted effect of over 55% in size; overnight with compound
2A firefly: Primary qHTS Assay for Foot and Mouth Disease Virus Antivirals against NCGC Sytravon and CBC Compound Libraries: Firefly Luciferase Signal; AID 1745856, 2022; HEK cells with a luciferase reporter of 2A StopGo recoding; Potency, µM (doses to about 57.5 µM), inactives show at the top dose signal change, negative = less light; hit rate 0.23% among 120,000; active = well fitted falling curve with a large enough effect; inconclusive = small, poorly fitted or top-dose-only effect; inactive = no such curve, though single readings can be large or run the other way; note: nearly all actives have a fitted effect of over 60% in size; overnight with compound
* hit, by the source's call; ? = inconclusive; [ ] = dose if it differs, or a comment. % is set by controls: 0 for no effect and ±100 for the full control effect; potency is the fitted concentration of half-maximal effect. Only part of the results is shown; the hit share may differ from the screen's.

Every second line gives: 2A Renilla | 2A firefly
(1) COc1ccccc1CCNC(=O)c1sc(NCc2ccccc2)nc1C
  -5% | 22%
(2) Cc1cc2c(c(SCC(=O)Nc3ccc(F)cc3)n1)C(=O)OC2
  -2% | -4%
(3) COc1ccccc1OCC(=O)NCc1nc(-c2ccc(Cl)cc2)no1
  -8% | -5%
(4) O=C(Nc1cccc(S(=O)(=O)N2CCOCC2)c1)c1ccc(OCc2cn3ccccc3n2)cc1
  ? | 32µM*
(5) COc1ccc(OCc2nc3c4c(-c5ccccc5)c(-c5ccccc5)oc4ncn3n2)cc1
  -10% | 24%
(6) Nc1ccccc1C12CC3CC(CC(C3)C1)C2
  -12% | -13%
(7) O=c1[nH]cnc2c1nc(SCc1cccc(Cl)c1)n2-c1ccccc1
  -2% | -20%
(8) CCc1ccc(-n2nc(C)c3c(C)cc(=O)n(CC(=O)Nc4ccccc4C(=O)OC)c32)cc1
  -12% | -13%
(9) CCCN(CCC)CCCNC(=O)c1cn(C)c2ccc(S(=O)(=O)N3CCOCC3)cc2c1=O
  -10% | -16%
(10) COC(=O)c1ccc(NC(=O)N2CCN(c3nnc(C)c4c(C)n(-c5ccccc5)nc34)CC2)cc1
  10% | -19%
(11) CN(CC(=O)Nc1cccc(F)c1)Cc1cc(Cl)cc2c1OCOC2
  -29% | ?
(12) CCCCOC(=O)c1ccc(NC(=O)c2cc(=O)c3cc(C)ccc3o2)cc1
  -15% | -7%
(13) CCCCCCCC(=O)c1ccc(O)cc1
  2% | 131%[activator]
(14) Nc1ccc2[nH]ncc2c1
  8% | 0%
(15) CCc1ccc(NC(=O)C(C)Sc2ncnc3ccccc23)cc1 (stereo unspecified)
  3% | 27%
(16) CCN(CC)S(=O)(=O)c1ccc(NS(=O)(=O)c2ccccc2)cc1
  228%[activator] | 4%
(17) COc1ccccc1CCNC(=O)C(=O)NCc1n[nH]c(=O)c2ccccc12
  4% | 17%
(18) O=C(NCc1ccc(Cl)cc1)c1ccc2c(c1)NC(=O)C(CS(=O)(=O)Cc1ccccc1Cl)N2 (stereo unspecified)
  -5% | -9%
(19) COC(=O)c1cc2oc(C)cc2n1Cc1ccccc1
  52%[activator] | 99%[activator]
(20) CCC(=O)c1c(OCCC(C)C)ccc2c(C)cc(=O)oc12
  30% | 15%

Complete entries, quoted from the list.
Entry for Cc1cc2c(c(SCC(=O)Nc3ccc(F)cc3)n1)C(=O)OC2 → 2A Renilla: -2%; 2A firefly: -4%
Entry for COC(=O)c1cc2oc(C)cc2n1Cc1ccccc1 → 2A Renilla: 52%[activator]; 2A firefly: 99%[activator]

The list goes on:
Every second line gives: 2A Renilla | 2A firefly
(21) CCN(CC)CCNC(=O)c1cc(Br)c(N)cc1OC
  -2% | -6%[11.5 µM]
(22) O=C(CSc1ccc2c(c1)OCCO2)c1ccc(Br)cc1
  0% | 0%
(23) CNc1oc(-c2ccccc2)nc1S(=O)(=O)c1ccc(C)cc1
  89%[activator] | 15%
(24) COc1nnc(-c2ccc(N3CCOCC3)c(NC(C)=O)c2)c2ccccc12
  1% | 5%
(25) O=S(=O)(c1ccccc1)c1nnn2c1nc(NCc1ccccc1)c1sccc12
  -11% | 0%
(26) CCOc1ccc(N/C=C/C(=O)c2ccc(Br)cc2)cc1
  5% | 0%
(27) CC(C(=O)Nc1ccccc1C(F)(F)F)N1C(=O)c2ccccc2C1=O (stereo unspecified)
  -14% | -9%
(28) CC(Nc1oc(/C=C/c2ccc(F)cc2)nc1C#N)c1ccccc1 (stereo unspecified)
  -1% | 14%
(29) Cc1nc(-c2ccc(S(=O)(=O)Nc3cccc(F)c3)cc2)co1
  156%[activator] | 4%
(30) N#Cc1ccc(NC(=O)COC(=O)c2ccccc2Oc2ccccc2)cc1
  -14% | -4%
(31) O=C(OCc1ccc(Cl)cc1)c1ccc(CN2CCCC2=O)cc1
  -4% | 8%
(32) Cc1sc2ncn(CC(=O)N3CCN(c4ccccc4)CC3)c(=O)c2c1S(=O)(=O)N1CCC(C)CC1
  -3% | 2%
(33) CC(NC(=O)c1nccnc1N)c1ccc(F)c(F)c1 (stereo unspecified)
  2% | 13%
(34) O=C(c1cc(-c2ccc(F)cc2)n[nH]1)N1CCN(C(=O)c2ccc(Br)o2)CC1
  -2% | 7%
(35) COc1cc(-c2nnc(SCC(=O)Oc3ccc(C)cc3C)o2)cc(OC)c1OC
  14% | -24%
(36) COCCNC(=O)c1cc(-c2cc(OC)c(OC)c(OC)c2)nc2ccccc12
  27% | 31%[activator]
(37) COc1cc(/C=C/c2nc(C#N)c(N3CCC(C)CC3)o2)cc(OC)c1OC
  -12% | 0%
(38) Cc1oc(-c2cccs2)nc1CC(=O)Nc1ccc(F)c(F)c1F
  92%[activator] | 9%
(39) NCC1CC2c3ccccc3C1c1ccccc12 (stereo unspecified)
  -19% | -12%
(40) COCCNC(=O)c1ccc(NC(=O)N2CCCCc3ccccc32)cc1
  -10% | -13%
(41) CCCN(CCC)C(=O)c1c[nH]c2ccc(S(=O)(=O)N(C)c3ccc(OCC)cc3)cc2c1=O
  51%[activator] | -10%
(42) O=C(O)c1ccc(-c2ccco2)cc1
  -2% | 2%
(43) COc1cc(C(=O)Nc2ccc(S(=O)(=O)Nc3cnc4ccccc4n3)cc2)cc(OC)c1OC
  -19% | 67%[activator]
(44) CCCN(c1ccccc1CC)S(=O)(=O)c1ccc2c(c1)CC(C)N2C(=O)C1CC1 (stereo unspecified)
  -17% | ?
(45) O=[N+]([O-])c1ccc(N/N=C/C2=C(Sc3nc4ccccc4o3)CCCC2)cc1
  0% | 24%
(46) CC1=C(C(N)=O)C(c2ccccc2Cl)N2C(=O)CSC2=N1 (stereo unspecified)
  -10% | -3%
(47) Cn1nc(C(=O)N2CCOCC2)c2c1-c1ccsc1CC2
  3% | 92%[activator]
(48) Cc1ccc(-n2nc(C(=O)N3CCN(c4cc(Cl)ccc4C)CC3)c(=O)n(C)c2=O)cc1
  -7% | -9%
(49) COc1ccc2c(c1)c1c(c(=O)n(CCc3ccccc3)c(=O)n1Cc1cccc(F)c1)n2C
  3% | -3%
(50) COC(=O)c1ccc2c(c1)N(Cc1ccc(Cl)cc1)C(=O)c1ccccc1S2
  3% | 3%
(51) CCOc1ccc(CCNC(=O)c2c(C)oc3ncn(CC(C)C)c(=O)c23)cc1
  21% | -9%
(52) O=C(Nc1cccc(C(F)(F)F)c1)C1C2CCC3C(CCC21)C3(Cl)Cl (stereo unspecified)
  ? | ?
(53) O=C(Cn1nc(N2CCN(c3ccccc3)CC2)ccc1=O)Nc1ccc(F)cc1
  -14% | -3%
(54) O=C(c1cc(=O)c2cc(Br)ccc2o1)N(Cc1cccs1)c1ccccn1
  111%[activator] | 13%
(55) CONC(=O)C(NC(=O)c1ccccc1F)C(C)C (stereo unspecified)
  -15% | -3%
(56) Cn1c(=O)n(C)c2cc(NS(=O)(=O)c3ccccc3)c(NCc3ccccc3)cc21
  228%[activator] | 148%[activator]
(57) O=C(C1CCCN(S(=O)(=O)c2ccc(Br)s2)C1)N1CCN(c2ccccc2F)CC1 (stereo unspecified)
  4% | -12%
(58) CCOC(=O)N1CCc2c(sc3c2C(=O)NC(c2ccc(N(C)C)cc2)N3)C1 (stereo unspecified)
  -12% | 11%
(59) Cc1ccc(S(=O)(=O)Nc2ccc3c(c2)CCCN3C(=O)c2cccs2)cc1C
  124%[activator] | ?
(60) CCOc1ccc(-c2nnc(SCC(=O)c3ccc(Br)cc3)n2-c2ccccc2)cc1
  -4% | 4%

Arranged by number of heavy atoms (highest first): part of the list above
Every second line gives: 2A Renilla | 2A firefly
(8) CCc1ccc(-n2nc(C)c3c(C)cc(=O)n(CC(=O)Nc4ccccc4C(=O)OC)c32)cc1
  -12% | -13%
(57) O=C(C1CCCN(S(=O)(=O)c2ccc(Br)s2)C1)N1CCN(c2ccccc2F)CC1 (stereo unspecified)
  4% | -12%
(20) CCC(=O)c1c(OCCC(C)C)ccc2c(C)cc(=O)oc12
  30% | 15%

Remaining list, next part
Every second line gives: 2A Renilla | 2A firefly
(61) COc1ccc(-c2cc3ncc(C(=O)c4cc(F)ccc4O)cn3n2)cc1
  0% | 1%
(62) COc1ccccc1C(=O)Nc1nnc(SCc2cc(=O)c3cc(Cl)ccc3[nH]2)s1
  -12% | 76%[activator]
(63) O=C(NC1CCN(C2CC2)CC1)c1ccccc1C(=O)c1ccc(F)cc1
  -12% | -18%
(64) O=S(CCCOc1ccc(F)cc1)Cc1ccccc1 (stereo unspecified)
  16%[1.06 µM] | 0%
(65) Cc1c(C(=O)NCCc2cccc(F)c2)[nH]c2c1C(=O)CCC2
  -1% | 153%[activator]
(66) COCCn1c(C)cc(O)c(C(c2ccccc2)N2CCN(c3ccccc3)CC2)c1=O (stereo unspecified)
  -12% | -26%
(67) Cc1cc(C)nc(NC2=NCC(=O)N2c2ccc(Cl)cc2Cl)n1
  -11% | -2%
(68) Cc1cnc(C(=O)Nc2ncc(Cc3ccc(C#N)cc3C(F)(F)F)s2)cn1
  25% | 19%
(69) Cc1cccc(NC(=O)Cn2c(=O)ccc3cc(S(=O)(=O)N4CCCC4)ccc32)c1C
  -5% | -18%
(70) Cc1ccccc1COC(=O)C1Cc2ccccc2C(=O)O1 (stereo unspecified)
  1% | 4%
(71) COc1ccc(-c2nn3c(=O)cc(CN4CCN(C(=O)Nc5cc(C)ccc5C)CC4)nc3s2)cc1
  -10% | -2%
(72) CCOc1ccccc1NC(=O)CCc1nc(-c2cccc(C)c2)no1
  -10% | -6%
(73) Cc1cccc(-n2c(=O)c3c(c4cc(C)ccc4n3C)n(Cc3ccccc3F)c2=O)c1
  1% | -9%
(74) Oc1c(I)cc(Cl)c2cccnc12
  -11% | -18%
(75) COc1ccc(CNC(=O)CCc2c(C)c3cc4c(C)c(C)oc4cc3oc2=O)cc1
  -2% | 99%[activator]
(76) CCOC(=O)C1=C(C)OC(N)=C(C(=O)OC(C)C)C12C(=O)Nc1ccc(Br)cc12 (stereo unspecified)
  71%[activator][1.06 µM] | ?
(77) Cc1ccc(NC(=O)C2CCN(c3nc4ccccc4nc3C(F)(F)F)CC2)cc1C
  2% | -14%
(78) CN(C)c1ccc(C(CNC(=O)c2ccccc2)N2CCc3ccccc32)cc1 (stereo unspecified)
  -13% | 90%[activator]
(79) O=C(Cn1c(=O)n(Cc2ccc(F)cc2)c(=O)c2sc3ccccc3c21)Nc1ccc(F)cc1F
  -3% | -9%
(80) COCCNC(=S)N(CCc1c(C)[nH]c2ccccc12)Cc1cc(OC)c(OC)c(OC)c1
  60%[activator] | -12%
(81) COc1cccc(SCC(=O)c2ccc3c(c2)CCC(=O)N3)c1
  33%[activator] | 0%
(82) O=C(Nc1ccc(Cl)c(C(F)(F)F)c1)C(c1ccccc1)c1ccccc1
  -27% | ?
(83) CCc1ccccc1NC(=O)c1nnn(CC(=O)Nc2c(C)cc(C)cc2C)c1N
  -8% | -18%
(84) O=C(/C=C/c1ccccc1)N1CCN(Cc2cc(=O)n3nc(-c4ccccc4)sc3n2)CC1
  -9% | -3%
(85) COc1ccc(/C=C(\C#N)Sc2ccc(Br)cc2)cc1
  7% | 128%[activator]
(86) Cc1ccc(OCC(=O)Nc2ccc3nc(SCC(=O)N4CCCC4)sc3c2)cc1C
  -5% | -16%
(87) C=CCNC(=O)NC(=O)COC(=O)c1ccc(COC)cc1
  6% | -1%
(88) Cc1ccc(C(NC(=O)COc2ccccc2C(N)=O)c2cccs2)cc1 (stereo unspecified)
  3% | 0%
(89) Cc1ccc(S(=O)(=O)/C=C/CS(=O)(=O)c2ccc(C)cc2)cc1
  -22% | -11%
(90) COc1ccc(-c2ocnc2C(=O)Nc2ccccc2F)cc1
  -13% | -1%
(91) O=C(O)C(c1c[nH]c2ccc(Cl)cc12)N1CCN(Cc2cccc(Cl)c2)CC1 (stereo unspecified)
  -8% | 4%
(92) Cc1ccc2nc(-c3cccc(NC(=O)c4ccc([N+](=O)[O-])c(C)c4)c3)oc2c1
  -3% | 23%
(93) O=C(Nc1ccc(Cl)cc1C(F)(F)F)c1ccc(Cl)cc1Cl
  14% | 24%
(94) CC(=O)Nc1ccc(-c2nc(N3CCCCC3)sc2C)cc1
  7% | 33%[activator]
(95) Cc1cccc(NC(=O)CSc2nc3c([nH]c4ccccc43)c(=O)n2-c2ccc(F)cc2)c1C
  -13% | 0%
(96) CCOC(=O)C1=C(COC(=O)c2ccccc2C(F)(F)F)NC(=O)NC1c1ccco1 (stereo unspecified)
  -8%[1.06 µM] | -4%
(97) Cc1cc(C)cc(N(CC(=O)Nc2ccccc2C(=O)NCC2CCCO2)S(C)(=O)=O)c1 (stereo unspecified)
  38%[activator] | 8%
(98) CC(C)c1ccc(NS(=O)(=O)c2ccc3[nH]cc(C(=O)NCCc4ccccc4)c(=O)c3c2)cc1
  -3% | -7%
(99) Cc1ccc2c(c1)c1c(c(=O)n(-c3ccccc3C)c(=O)n1CC(=O)NCC1CCCO1)n2C (stereo unspecified)
  -9% | -15%
(100) O=S1(=O)N=C(Nc2cccc(C(F)(F)F)c2)c2ccccc21
  -4% | 22%
(101) CCOc1ccc2c(c1)c(C(C)=O)c(C)n2Cc1ccccc1
  ? | ?
(102) CN(C)S(=O)(=O)c1ccc(NC(=O)Cc2cc(Cl)c3c(c2)OCCCO3)cc1
  16% | -9%
(103) O=C(Nc1ccc(F)cc1)c1nn(-c2ccc(F)cc2)c2c1CCC2
  2% | 16%
(104) N#CNC(=Nc1ccc(F)cc1)SCc1cccc(F)c1
  36%[activator] | 0%
(105) COc1ccc(-c2nn(-c3ccccc3)cc2C2CC(c3ccco3)=NN2S(C)(=O)=O)cc1 (stereo unspecified)
  118%[activator] | 17%
(106) O=C(c1cnn(Cc2ccccc2Cl)c1)N1CCCN(S(=O)(=O)c2ccc(F)cc2)CC1
  20% | 24%
(107) CCc1ccc(C(=O)N(CC)CC)o1
  20% | 19%
